Source: PubChem BioAssay
Vaccinia stage – Vaccinia orthopox stage-specific inhibition; AID 1053133; actives 0.01% (n = 89,000); Vaccinia-infected cells, mCherry/Venus stage reporter fluorescence; stronger effect = lower value; some inactives read as strong as hits; activity change (mCherry), % (concentration not given with the values);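 active means mCherry past -33% and 40 or more points under the early reporter, replicates agreeing; inconclusive means past -33% without that gap or agreement; tested in A549 cells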;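 further: scaled between vehicle wells and reference inhibitor wells; 23 nL library stock went into each well; one replicate is shown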
Vaccinia stage Venus – second read-out of Vaccinia stage, no call of its own (marks repeat the call); activity change (Venus), %; measured here: Venus reporter, other viral stage;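 negative = less Venus signal; first of two replicates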
An asterisk follows results filed as active; ? = inconclusive; · = not tested or not shown; & = joins results of further samples. A portion of the library. The share of hits here may be higher or lower than overall.

SMILES	Vaccinia stage	Vaccinia stage Venus
Cc1noc(C)c1NC(=O)N(C)C[C@H]1Oc2ccc(NC(=O)Cn3cnnn3)cc2C(=O)N([C@H](C)CO)C[C@@H]1C	6.7	5.0
O=C(N[C@H]1CC[C@@H](CCNC(=O)C2CCCC2)O[C@H]1CO)c1ccccn1	0.1	0.6
O=S(=O)(Cc1ccccc1)N1CCCCN2[C@H](C1)[C@H](c1ccc(-c3ccc(F)cc3)cc1)[C@@H]2CO	-24.9	-16.9
O=C(c1cccnc1)N1CC[C@@H]2[C@H](CO)Nc3ccc(-c4ccccc4)cc3[C@@H]21	10.2	15.4
COc1ccc(NC(=O)N(C)C[C@@H]2Oc3ccc(NC(=O)Nc4cccc5ccccc45)cc3CC(=O)N([C@@H](C)CO)C[C@@H]2C)cc1	6.6	6.3
C[C@H]1CN([C@@H](C)CO)C(=O)Cc2cc(NC(=O)CCN3CCOCC3)ccc2O[C@@H]1CN(C)S(=O)(=O)c1ccccc1	45.1	33.5
C[C@@H]1CN([C@@H](C)CO)C(=O)c2cc(NS(=O)(=O)c3cn(C)cn3)ccc2O[C@@H](C)CCCCO[C@H]1CN(C)CC1CC1	15.2	7.1
CO[C@H]1CC[C@H]2CCN(C)C(=O)CCCN(C)C(=O)c3cc(C#N)ccc3OC[C@H]1O2	14.5	2.6
CCCC(=O)N1CC2(CCN(Cc3nccs3)CC2)c2c([nH]c3cc(OC)ccc23)[C@H]1CO	11.6	2.7
COc1ccc(NC(=O)N2CCCCN3[C@H](CO)[C@H](c4ccc(C#Cc5ccccn5)cc4)[C@H]3C2)cc1	3.5	-11.4
Cc1noc(C)c1S(=O)(=O)Nc1cccc2c1O[C@@H](CN(C)Cc1ccc(Cl)c(Cl)c1)[C@@H](C)CN([C@H](C)CO)C2=O	10.8	2.3
C[C@H]1CN([C@@H](C)CO)C(=O)c2cc(C#CCN(C)C)cnc2O[C@H]1CN(C)S(=O)(=O)c1cn(C)cn1	10.1	3.5
O=C(NC1CCCCC1)N[C@H]1CC[C@H](CC(=O)N2CCOCC2)O[C@@H]1CO	10.0	3.9
O=C(Cc1cccnc1)N1CC2(C1)[C@@H](c1ccccc1)[C@@H](CO)N2C(=O)C1CCC1	-0.9	7.7
CCNC(=O)[C@@H]1[C@@H](CO)[C@@H]2Cn3c(ccc(-c4ccccc4)c3=O)[C@@H]2N1C(=O)Cc1cccnc1	1.1	1.4
CCC(=O)Nc1ccc2c(c1)C(=O)N(C)C[C@@H](OC)[C@H](C)CN[C@H](C)CO2	1.2	2.8
OC[C@@H]1[C@H]2c3ccccc3NC[C@H]2N1Cc1ccccc1Cl	-20.2	-3.7
COCC#Cc1ccc([C@@H]2[C@H]3CN(C(=O)c4cccnc4)CC(=O)N3[C@H]2CO)cc1	26.7	16.9
C[C@H]1CN([C@@H](C)CO)C(=O)c2cc(C3=CCCC3)cnc2O[C@@H]1CN(C)Cc1ccc(F)cc1	-27.6	-29.1
CC=Cc1ccc2n(c1=O)C[C@@H]1[C@@H](CO)[C@H](C(=O)N(C)C)[C@H]2N1Cc1cc(F)ccc1F (mixture of isomers)	21.1	5.7
C[C@@H]1CCCCO[C@H](CN(C)C(=O)Nc2ccc(F)cc2)[C@H](C)CN([C@H](C)CO)C(=O)c2cc(NC(=O)c3ccncc3)ccc2O1	21.4	3.9
C[C@H](CO)N1C[C@H](C)[C@H](CN(C)Cc2ccc(C(=O)O)cc2)Oc2ccc(NC(=O)CCCN(C)C)cc2C1=O	13.5	12.8
C[C@@H]1CN([C@@H](C)CO)C(=O)c2cc(C#CC3CCCC3)cnc2O[C@@H]1CN(C)C(=O)Cc1ccccn1	-17.4	-16.5
CC(=O)N(C)C[C@H]1Oc2ncc(-c3ccccc3F)cc2C(=O)N([C@@H](C)CO)C[C@H]1C	23.2	11.7
CN1C(=O)c2cc(NC(=O)Cc3cccs3)ccc2OC[C@H]2O[C@H](CC(=O)N[C@@H]3CCN(Cc4ccccc4)C3)CC[C@@H]21	-5.8	-8.9
C[C@H](CO)N1C[C@H](C)[C@@H](CN(C)C(=O)Oc2cccc3ccccc23)OCc2cn(nn2)CCCC1=O	11.1&4.4	4.4&7.0
C[C@H](CO)N1C[C@H](C)[C@H](CN(C)C)Oc2ccc(N(C)C)cc2C1=O	17.9	6.9
CO[C@@H]1CN(C)C(=O)c2ccc(NC(=O)Nc3ccc(C(F)(F)F)cc3)cc2OC[C@H](C)NC[C@@H]1C	-25.9	-6.5
CS(=O)(=O)N1CCCCN2[C@@H](CO)[C@H](c3ccc(Br)cc3)[C@@H]2C1	31.2	14.7
CCCC(=O)Nc1ccc2c(c1)OC[C@H](C)N(C(=O)c1ccccn1)C[C@H](C)[C@H](OC)CN(C)C2=O	7.1	4.9
CN(C)CC#Cc1cccc(-c2nc(C(=O)N3CCN(Cc4ccccc4)CC3)cc3c2[C@@H](CCO)N(S(=O)C(C)(C)C)C3)c1 (stereo partly drawn)	2.8	2.8
CCO[C@@H]1OC(C(=O)O)=C[C@H](c2ccc(C(F)(F)F)cc2)[C@H]1CCCO	23.8	-0.1
C[C@H](CO)N1C[C@H](C)[C@@H](CN(C)S(=O)(=O)c2cccs2)Oc2ccc(NC(=O)Cc3cn(C)c4ccccc34)cc2C1=O	36.8	16.7
COc1ccc(S(=O)(=O)N(C)C[C@H]2Oc3ccc(NS(=O)(=O)c4ccccc4)cc3CC(=O)N([C@H](C)CO)C[C@H]2C)cc1	5.4	-4.5
O=C(C[C@H]1CC[C@H](NS(=O)(=O)c2ccc(F)cc2)[C@H](CO)O1)NC1CCCCC1	0.4	-5.5
COc1ccc2c3c([nH]c2c1)[C@H](CO)N(C(=O)C1CC1)CC31CN(C(=O)NC(C)C)C1	3.1	1.5
C[C@@H]1CN([C@@H](C)CO)C(=O)c2cccc(NC(=O)C3CCOCC3)c2O[C@H]1CN(C)Cc1ccc(-c2ccccc2)cc1	-26.4	-15.7
C[C@H]1CN([C@@H](C)CO)C(=O)CCCn2cc(nn2)CO[C@H]1CN(C)C(=O)Nc1cccc(F)c1	8.7	6.9
CO[C@H]1CN(C)C(=O)c2ccc(NS(C)(=O)=O)cc2OC[C@@H](C)N(C(=O)C2CCCCC2)C[C@@H]1C	11.7	4.3
CNC[C@H]1Oc2cc(-c3cccc(F)c3)ccc2S(=O)(=O)N([C@H](C)CO)C[C@@H]1C	6.1	1.9
COc1ccc(NC(=O)N(C)C[C@H]2Oc3ccc(NC(=O)NC(C)C)cc3CC(=O)N([C@H](C)CO)C[C@H]2C)cc1	14.2	10.5
C[C@@H](O)C#Cc1ccc2c(c1)O[C@@H](CN(C)C(=O)c1ccncc1)[C@@H](C)CN([C@@H](C)CO)S2(=O)=O	3.2	-0.9
C[C@@H]1CN([C@H](C)CO)C(=O)c2cc(NC(=O)c3ccncc3)ccc2O[C@@H](C)CCCCO[C@H]1CN(C)S(=O)(=O)c1ccc(Cl)cc1	?	·
O=C(C1=C[C@H](c2csc3ccccc23)C[C@H](OCc2ccc(CO)cc2)O1)N1CCN(Cc2ccc3c(c2)OCO3)CC1	-31.3	-23.9
C[C@@H]1CN([C@@H](C)CO)S(=O)(=O)c2ccc(-c3ccc(C#N)cc3)cc2O[C@H]1CN(C)Cc1ccccn1	?	·
COc1ccc(NC(=O)Nc2cccc3c2O[C@@H](CN(C)C(=O)NC2CCCCC2)[C@H](C)CN([C@H](C)CO)C3=O)cc1	-3.1	-1.4
CN(C)C(=O)C[C@@H]1CC[C@H]2[C@@H](COC[C@H](O)CN2CC2CCCCC2)O1	12.7	9.8
COc1ccc(S(=O)(=O)N(C)C[C@H]2Oc3ccc(NC(=O)Nc4ccc(C(F)(F)F)cc4)cc3CC(=O)N([C@@H](C)CO)C[C@@H]2C)cc1	11.3	20.5
CN1C(=O)c2cc(NC(=O)c3cccs3)ccc2OC[C@@H]2O[C@@H](CC(=O)NCCN3CCCCC3)CC[C@@H]21	-6.6	-8.7
CO[C@H]1CN(C)C(=O)c2ccc(NC(C)=O)cc2OC[C@H](C)N(Cc2nccs2)C[C@@H]1C	9.6	10.3
C[C@H](CO)N1C[C@H](C)[C@@H](CN(C)CC2CCCCC2)Oc2ccc(NC(=O)NC3CCCCC3)cc2CC1=O	?	·
COc1ccc(-c2ccccc2[C@@H]2[C@@H](C#N)N(C(=O)C3CCC3)[C@H]2CO)cc1	2.1	1.4
Cc1ccc(S(=O)(=O)Nc2ccc3c(c2)C(=O)N([C@H](C)CO)C[C@H](C)[C@H](CN(C)Cc2ccc(C(F)(F)F)cc2)OCCCC[C@@H](C)O3)cc1	?	·
Cc1ccccc1-c1ccc2c(c1)O[C@H](CN(C)C(=O)Nc1ccc(C(F)(F)F)cc1)[C@@H](C)CN([C@H](C)CO)S2(=O)=O	?	·
CC(=O)N1CC(=O)N2[C@H](CO)[C@H](c3ccc(-c4ccc(C)cc4)cc3)[C@@H]2C1	21.4	-2.5
COc1ccc(-c2cnc3c(c2)C(=O)N([C@@H](C)CO)C[C@H](C)[C@@H](CN(C)Cc2ccccn2)O3)cc1	20.8	7.4
C[C@H]1CN([C@@H](C)CO)C(=O)c2cc(NC(=O)c3ccncc3)ccc2O[C@@H]1CN(C)C(=O)Nc1cccc2ccccc12	21.0	16.6
CC(C)NC(=O)Nc1ccc2c(c1)C(=O)N([C@@H](C)CO)C[C@@H](C)[C@@H](CN(C)CC1CCCCC1)O2	8.4	17.2
CCCN(C)C[C@H]1OCCCC[C@@H](C)Oc2ccc(NC(=O)CCCN(C)C)cc2C(=O)N([C@H](C)CO)C[C@@H]1C	-2.8	4.8
COc1ccc(CN(C)C[C@H]2Oc3ccc(NC(=O)C4CCCCC4)cc3C(=O)N([C@H](C)CO)C[C@H]2C)cc1	-0.7	-2.2

Shown with values under each structure: part of the list above
Values in the order – Vaccinia stage, Vaccinia stage Venus
C[C@H](CO)N1C[C@H](C)[C@H](CN(C)C)Oc2ccc(N(C)C)cc2C1=O
 : 17.9, 6.9
CO[C@@H]1CN(C)C(=O)c2ccc(NC(=O)Nc3ccc(C(F)(F)F)cc3)cc2OC[C@H](C)NC[C@@H]1C
 : -25.9, -6.5
CS(=O)(=O)N1CCCCN2[C@@H](CO)[C@H](c3ccc(Br)cc3)[C@@H]2C1
 : 31.2, 14.7
CCCC(=O)Nc1ccc2c(c1)OC[C@H](C)N(C(=O)c1ccccn1)C[C@H](C)[C@H](OC)CN(C)C2=O
 : 7.1, 4.9
CN(C)CC#Cc1cccc(-c2nc(C(=O)N3CCN(Cc4ccccc4)CC3)cc3c2[C@@H](CCO)N(S(=O)C(C)(C)C)C3)c1 (stereo partly drawn)
 : 2.8, 2.8
CCO[C@@H]1OC(C(=O)O)=C[C@H](c2ccc(C(F)(F)F)cc2)[C@H]1CCCO
 : 23.8, -0.1
C[C@H](CO)N1C[C@H](C)[C@@H](CN(C)S(=O)(=O)c2cccs2)Oc2ccc(NC(=O)Cc3cn(C)c4ccccc34)cc2C1=O
 : 36.8, 16.7
COc1ccc(S(=O)(=O)N(C)C[C@H]2Oc3ccc(NS(=O)(=O)c4ccccc4)cc3CC(=O)N([C@H](C)CO)C[C@H]2C)cc1
 : 5.4, -4.5
O=C(C[C@H]1CC[C@H](NS(=O)(=O)c2ccc(F)cc2)[C@H](CO)O1)NC1CCCCC1
 : 0.4, -5.5
COc1ccc2c3c([nH]c2c1)[C@H](CO)N(C(=O)C1CC1)CC31CN(C(=O)NC(C)C)C1
 : 3.1, 1.5

The list goes on:
SMILES	Vaccinia stage	Vaccinia stage Venus
Cc1cccc(S(=O)(=O)N(C)C[C@@H]2OCc3cn(nn3)CCCC(=O)N([C@H](C)CO)C[C@@H]2C)c1	-3.6	-2.6
CCOC(=O)N(C)C[C@H]1OCc2cn(nn2)CCCC(=O)N([C@H](C)CO)C[C@@H]1C	8.1	14.3
Cc1ccc(S(=O)(=O)N[C@H]2C=C[C@@H](CC(=O)NCCCN(C)C)O[C@H]2CO)cc1	9.8	-0.1
C[C@@H]1CN([C@@H](C)CO)C(=O)c2cc(NC(=O)C3CC3)ccc2O[C@H]1CN(C)Cc1ccc2c(c1)OCO2	-7.3	-4.1
C[C@H]1CN([C@@H](C)CO)C(=O)c2cccc(NC(=O)c3cnccn3)c2O[C@@H]1CN(C)Cc1ccc(C(=O)Nc2ccccc2N)cc1	-14.7	-4.2
C[C@H](O)C#Cc1cnc2c(c1)C(=O)N([C@H](C)CO)C[C@@H](C)[C@H](CN(C)C(=O)c1ccc(F)cc1)O2	21.3	16.4
C[C@@H]1CCCCO[C@@H](CN(C)S(=O)(=O)c2cn(C)cn2)[C@@H](C)CN([C@@H](C)CO)C(=O)c2cc(NS(=O)(=O)c3ccc(Cl)cc3)ccc2O1	10.5	10.1
CCC(=O)N(C)C[C@@H]1Oc2ncc(C#CC3(O)CCCC3)cc2C(=O)N([C@H](C)CO)C[C@H]1C	12.3	4.3
CCC(=O)N1C[C@H](C)[C@@H](OC)CN(C)C(=O)c2ccc(NC(=O)Nc3cccc(F)c3)cc2OC[C@@H]1C	-22.3	-16.3
COc1ccc(S(=O)(=O)Nc2cccc3c2O[C@@H](CN(C)Cc2ccc(Oc4ccccc4)cc2)[C@@H](C)CN([C@H](C)CO)C3=O)cc1	-16.4	-3.8
C[C@H]1CN([C@@H](C)CO)S(=O)(=O)c2ccc(C#CC3(O)CCCC3)cc2O[C@H]1CN(C)C(=O)c1ccncc1	18.8	7.2
CO[C@H]1CN(C)C(=O)c2cc(NC(=O)CC(F)(F)F)ccc2OC[C@H](C)N(C(=O)c2ccccc2F)C[C@@H]1C	17.1	12.2
COc1ccc2c3c([nH]c2c1)[C@@H](CO)N(C(=O)Nc1ccc(F)cc1)CC31CCN(C(=O)Cc2ccncc2)CC1	25.4	25.0
COCC#Cc1ccc2c(c1)O[C@H](CN(C)S(=O)(=O)c1cccc(F)c1)[C@H](C)CN([C@@H](C)CO)S2(=O)=O	-19.4	-13.6
CCC(=O)N1C[C@H](C)[C@@H](OC)CN(C)C(=O)c2cc(NC(=O)Nc3ccccc3)ccc2OC[C@@H]1C	-5.2	3.1
CC(C)NC(=O)N(C)C[C@H]1OCc2cn(nn2)CCCC(=O)N([C@H](C)CO)C[C@@H]1C	-4.2	10.2
